# Screening data: PubChem BioAssay, ICCB-Longwood Screening Facility, Harvard Medical School
# GIV-Gai inh = inhibitors of GIV GBA-motif binding to rat Galpha-i3. Galpha-i3/FITC-GIV peptide fluorescence polarization, 90 min; stronger effect = lower value; scaled: aluminum fluoride 0%, vehicle 100%. P08753. 210,000 tested, 0.42% active. AID 1224905. percent of control (FP), % (no concentration beside the values);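 active = replicate mean at 85% of control or lower, very high polarization wells dropped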;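 also: wells of about 15 µL received 100 nL stock; the first replicate is given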
# Target sequence (P08753 whole entry, looked up): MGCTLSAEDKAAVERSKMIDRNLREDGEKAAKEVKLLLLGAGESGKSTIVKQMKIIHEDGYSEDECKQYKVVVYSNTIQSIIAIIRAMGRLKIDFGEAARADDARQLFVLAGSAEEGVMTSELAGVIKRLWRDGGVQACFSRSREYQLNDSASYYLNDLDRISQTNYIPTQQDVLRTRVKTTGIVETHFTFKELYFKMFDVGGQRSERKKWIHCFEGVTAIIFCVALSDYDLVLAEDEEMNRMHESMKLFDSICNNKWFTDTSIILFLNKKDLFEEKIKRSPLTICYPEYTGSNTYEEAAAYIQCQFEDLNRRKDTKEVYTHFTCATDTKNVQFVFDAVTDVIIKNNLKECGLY
# HCMV UL50-53 inh = cytomegalovirus nuclear egress complex inhibition. HTRF UL50-UL53 interaction, normalized percent inhibition. inhibition, % (test concentration not listed). 190,000 tested, 0.15% active. AID 1918969;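 active = both replicates at 50% or more, plus weaker picks with an unusually low signal ratio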;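 also: stock transfer was 100 nL into about 20 µL; 0% = negative control wells and 100% = wells with untagged competitor protein; inactives centre near -12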
# Sa growth inh = blocks Staphylococcus aureus growth | AID 720641 | S. aureus RN4220 growth, OD600, 20 h, 42 °C; stronger effect = lower value | 170,000 tested, 0.53% active | relative growth, % (no concentration beside the values);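 active = growth at 42 °C up to 50% and 20 or more points under that at 30 °C, or under 10% at both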;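 also: 300 nL library stock went into each well; scaled to the means of positive and negative controls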
# Sa growth inh second temp = second read-out of Sa growth inh, no call of its own (marks repeat the call); relative growth, %; measured here: growth at 30 °C;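 optical density after 20 h as mean of two plates; 100% = untreated growth and lower means inhibition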
# * = called active by the depositor; . = no result given; & = joins results of further samples.
# Sample of the layout:
SMILES,GIV-Gai inh,HCMV UL50-53 inh,Sa growth inh,Sa growth inh second temp
CC1CCN(C(=O)C(C)Sc2nnc3c(n2)[nH]c2ccccc23)CC1 (stereo not given),105,-14,99,108
COC(=O)C1C(=O)Oc2ccc3ccccc3c2C1C(C)(C)C(=O)OC (stereo not given),105,-22,101,87
CCN1C(=O)CSC1=NC12CC3CC(CC(C3)C1)C2,100,-5,70,59
O=C(CC(=O)NCC1CCCO1)NCC1CCCO1 (stereo not given),.,-41,116,94
COc1ccc(-c2cnn3c(C(F)(F)F)cc(C)nc23)cc1OC,102,-29,.,.
CCC1(c2csc(Nc3ccccc3C)n2)CCC(=O)O1 (stereo not given),93,-16,128,87
Cc1nc2scc(C)n2c(=O)c1S(=O)(=O)NCc1ccccc1Cl,109,23,98,105
O=C(NCc1ccccc1C(F)(F)F)c1ccc2ccccc2c1,108,.,98,87
CCN(Cc1ccccc1)C(=O)Cn1c(=O)n(-c2ccc(C)cc2)c(=O)c2ccccc21,109,.,71,94
N#CCSc1sc2c(O)cc(=O)[nH]c2c1C#N,103,-82,136,64
CN(C)S(=O)(=O)c1ccc2ncn(O)c2c1,.,-26,99,91
C=CCn1c2ccc(C)cc2c2nc3ccccc3nc21,103,-32,94,72
CSc1sc(C(=O)N2CCOCC2)cc1-c1nc(-c2ccc(Cl)cc2)cs1,107,7,115,99
O=C1OC2CC3CCC2C1C3 (stereo not given),107,-28,89,88
COc1ccc(C2Sc3nncn3N2Cc2ccc(C#N)cc2)cc1 (stereo not given),102,.,110,84
Clc1cccc(CSc2nc3ncccc3[nH]2)c1,106,-34,.,.

# The list itself, from the first entry:
SMILES,GIV-Gai inh,HCMV UL50-53 inh,Sa growth inh,Sa growth inh second temp
CC1CCN(C(=O)C(C)Sc2nnc3c(n2)[nH]c2ccccc23)CC1 (stereo not given),105,-14,99,108
COC(=O)C1C(=O)Oc2ccc3ccccc3c2C1C(C)(C)C(=O)OC (stereo not given),105,-22,101,87
CCN1C(=O)CSC1=NC12CC3CC(CC(C3)C1)C2,100,-5,70,59
O=C(CC(=O)NCC1CCCO1)NCC1CCCO1 (stereo not given),.,-41,116,94
COc1ccc(-c2cnn3c(C(F)(F)F)cc(C)nc23)cc1OC,102,-29,.,.
CCC1(c2csc(Nc3ccccc3C)n2)CCC(=O)O1 (stereo not given),93,-16,128,87
Cc1nc2scc(C)n2c(=O)c1S(=O)(=O)NCc1ccccc1Cl,109,23,98,105
O=C(NCc1ccccc1C(F)(F)F)c1ccc2ccccc2c1,108,.,98,87
CCN(Cc1ccccc1)C(=O)Cn1c(=O)n(-c2ccc(C)cc2)c(=O)c2ccccc21,109,.,71,94
N#CCSc1sc2c(O)cc(=O)[nH]c2c1C#N,103,-82,136,64
CN(C)S(=O)(=O)c1ccc2ncn(O)c2c1,.,-26,99,91
C=CCn1c2ccc(C)cc2c2nc3ccccc3nc21,103,-32,94,72
CSc1sc(C(=O)N2CCOCC2)cc1-c1nc(-c2ccc(Cl)cc2)cs1,107,7,115,99
O=C1OC2CC3CCC2C1C3 (stereo not given),107,-28,89,88
COc1ccc(C2Sc3nncn3N2Cc2ccc(C#N)cc2)cc1 (stereo not given),102,.,110,84
Clc1cccc(CSc2nc3ncccc3[nH]2)c1,106,-34,.,.
O=C(CSc1nc2ccccc2n1CCc1ccccc1)NC1CCS(=O)(=O)C1 (stereo not given),.,-5,102,96
CCCCN(C)c1nc(-c2ccc(OC)cc2)nc2ccccc12,109,4,59,57
Cc1ccc(OCc2nc(C#N)c(N3CC(C)OC(C)C3)o2)cc1 (stereo not given),105,.,87,84
CCOc1ccc(CNC(=O)c2cc3c(s2)-c2ccccc2OC3)cc1,102,-6,99,89

# Compound profiles, from the list above:
# CCCCN(C)c1nc(-c2ccc(OC)cc2)nc2ccccc12 is listed with GIV-Gai inh = 109; HCMV UL50-53 inh = 4; Sa growth inh = 59; Sa growth inh second temp = 57
# Cc1nc2scc(C)n2c(=O)c1S(=O)(=O)NCc1ccccc1Cl is listed with GIV-Gai inh = 109; HCMV UL50-53 inh = 23; Sa growth inh = 98; Sa growth inh second temp = 105

# (more compounds)
SMILES,GIV-Gai inh,HCMV UL50-53 inh,Sa growth inh,Sa growth inh second temp
CC1Cc2cc(S(=O)(=O)N3CCN(c4ccccc4F)CC3)ccc2N1C(=O)C1CCC1 (stereo not given),101,.,102,92
Clc1ccccc1-c1nc(N2CCCC2)c2ccccc2n1,101,-10,92,86
Cc1ccc(-c2n[nH]c(CCNC(=O)c3ccc(S(=O)(=O)N4CCOCC4)cc3)n2)cc1,100,-23,.,.
O=C(Cc1ccc(Br)cc1)N1CCC(c2nc(-c3ccc(F)cc3)no2)CC1,103,1,.,.
COc1ccc(NC(=O)CN(C)S(=O)(=O)c2ccc(C(=O)N3CCOCC3)s2)cc1,104,.,97,89
O=C(CN1C(=O)c2cccc3cccc1c23)Nc1ccc(S(=O)(=O)N2CCCCCC2)cc1,103,0,96,76
CCCNC(=O)Cn1ncc2c3ccccc3n(C)c2c1=O,102,.,99,84
CC1CCCCN1C(=O)Cn1c(=O)n(CC2CCC(C(=O)NC3CCCC3)CC2)c(=O)c2ccccc21 (stereo not given),101,-2,91,82
O=C(CN1C(=O)CCc2ccccc21)NCc1ccccc1,103,.,114,87
CN(C(=O)CSCc1ccc(Cl)cc1)c1ccccc1,98,-17,.,.
O=C(OCC(=O)N1c2ccccc2Sc2ccccc21)C1=COCCO1,.,-39,78,90
Cc1cc(C)cc(Oc2coc3c(CN(C)C)c(O)ccc3c2=O)c1,.,-12,98,100
Cc1cc(Cc2ccc(C(F)(F)F)cc2)c(=O)[nH]n1,106,-27,106,95
O=S(=O)(c1ccccc1)N(C1=NCCS1)S(=O)(=O)c1ccccc1,.,-2,112,94
O=C(O)CSCC(=O)Nc1cccc2ccccc12,100,-14,99,99
CCCNC(=O)c1ccc2c(c1)NC(=O)/C(=C/c1ccccc1)S2,118,.,85,78
O=C(Nc1cccc(-c2nc3ccccc3[nH]2)c1)c1cccc(N2C(=O)CCC2=O)c1,103,0,97,85
Cn1c(=O)c2c(nc(Sc3ccccc3NC(=O)Nc3ccc(F)cc3)n2C)n(C)c1=O,100,-5,.,.
Nc1nnc(SCC(=O)Nc2ccc(Cl)cc2)s1,98,.,82,89
COc1cc(OC)c(OC)cc1CN1CCN(c2cccc(C)c2C)CC1,98,73*,107,92
COc1ccccc1NC(=O)Nc1cc(C(C)(C)C)nn1-c1ccccc1,.,16,94,101
Cc1nc(-n2[nH]c(C)c(CCC(=O)Nc3ccc(Cl)cc3)c2=O)sc1C,100,-2,.,.
CC(=O)N1N=C(c2ccccc2O)CC1c1cn(-c2ccccc2)nc1-c1ccccc1 (stereo not given),102,-1,.,.
CCOc1cc2sc(N3CCC(C(=O)Nc4ccccc4Cl)CC3)nc2cc1Br,95,-40,103,92
CCn1c(=N)c(C(=O)NC2CCCCC2)cc2c(=O)n3ccccc3nc21,102,-82,95,90
CC1(C)C2CC=C(COCC(O)CNCc3ccccn3)C1C2 (stereo not given),.,-18,109,80
CCC(=O)N1CCc2cc(S(=O)(=O)NCCC(=O)Nc3cc(C)ccc3OC)ccc21,108&98,-10&-26,88,97
O=c1cc(-c2ccccc2)nc(NCc2cccnc2)[nH]1,97,-16,.,.
COc1cc(C(O)CO)ccc1OS(=O)(=O)O (stereo not given),104,-20,.,.
Cn1c(=S)[nH]c2ccccc21,.,-6,110,87
Cc1c(C(=O)Nc2nc(-c3ccc(F)cc3)ns2)oc2ccc(Cl)cc12,101,-18,105,91
CC1CC(C)CN(C(c2ccco2)c2sc3ncnn3c2O)C1 (stereo not given),145,-15,92,92
CCn1cc(-c2nc(-c3ccc(C)cc3)no2)c(=O)c2cc(F)c(N3CCOCC3)cc21,106,9,.,.
CCN(C#N)c1ccc(Cc2ccc(N(C#N)CC)cc2)cc1,100,8,111,96
C[n+]1cccc2ccc(O)cc21,-7.5*,-53,94,88
CN1C(=C2C(=O)CC(C)(C)CC2=O)Sc2ccccc21,95,-22,83,82
Cc1csc2c(N3CCC(C(=O)O)CC3)ncnc12,95,-21,88,85
CC1Oc2ccc(-c3csc(NC(=O)c4cccnc4)n3)cc2N(C)C1=O (stereo not given),99,1,.,.
COc1cc(NS(=O)(=O)c2ccc(NC(=O)c3ccc(C(C)=O)cc3)cc2)nc(OC)n1,99,-35,94,86
COc1ccc2sc(C3C(=O)c4cccnc4C3=O)nc2c1 (stereo not given),103,-125,90,97
CCCCN1CC(c2nc3ccccc3n2CCCCOc2cccc(C)c2C)CC1=O (stereo not given),101,-12,91,14
COc1ccc(N2C(=O)CC(c3ccccc3)C2=O)cc1 (stereo not given),102,-16,96,91
Cc1noc(C(=O)N(C)C2CCCCC2)c1Cl,103,-9,98,90
O=C(CSc1nnc(-c2ccccc2F)n1C1CC1)Nc1ccccc1,.,-24,74,82
Cc1nn(C)c2[nH]c(C(F)(F)F)cc(=O)c12,110,0,102,95
COc1ccc(N2CCN(CC(=O)Nc3nc(-c4ccccc4)cs3)CC2)cc1,106,-11,.,.
N#Cc1c(SCC(=O)C23CC4CC(CC(C4)C2)C3)sc2c(=O)[nH]c(=O)[nH]c12,105,.,93,95
Cc1ccc(N(CC(=O)Nc2ccc(Cl)cc2)S(=O)(=O)c2cccc3nonc23)cc1,105,-19,107,93
Cc1ccccc1OCC(=O)Nc1ccc(OCc2cc(=O)n3ccccc3n2)cc1,103,.,91,91
Cc1ccc(/C=C(\C#N)c2nc(-c3ccc(-c4ccccc4)cc3)cs2)cc1,107,-5,95,92

# Continued.
SMILES,GIV-Gai inh,HCMV UL50-53 inh,Sa growth inh,Sa growth inh second temp
CS(=O)(=O)N1CCCc2cc(C(=O)N3CCN(c4ccccc4)CC3)ccc21,99,-22,.,.
O=S1(=O)C=CC(NCc2ccccc2)C1 (stereo not given),.,9,90,96
CCC(=O)c1sc(Nc2ccccc2)nc1N,116,1,.,.
O=C(OCCN1C(=O)c2cccc3c(N4CCOCC4)ccc(c23)C1=O)c1cc([N+](=O)[O-])cc([N+](=O)[O-])c1,103,-24,.,.
Cc1cc(C(=O)Nc2nc(-c3ccccc3)c(-c3ccccc3)s2)no1,107,-2,118,107
CN(C(=O)COc1ncnc2ccccc12)C1CCCCC1,.,11,71,92
CC(=O)NCc1ccc(C(=O)CSc2nnc(-c3ccc4c(c3)OCO4)n2-c2ccccc2)o1,.,-44,62,85
CCc1nc2nc(C)cc(Nc3cccc(C)c3C)n2n1,108,1,130,89
COC(=O)c1scc(-c2ccccc2)c1S(=O)(=O)Nc1ccccc1,100&108,-22,102,92
CCCCc1cc(=O)oc2c(CN(C)C)c(O)ccc12,106,-30,122,94
C=CCSc1nc(-c2ccccc2)c(C#N)c(=O)[nH]1,102,-10,110,76
Cc1ccc(/C=C/C(=O)OCC(=O)c2cc(C)c(C)cc2C)o1,.,-13,107,92
CCn1c(NC)nc2c1c(=O)n(C)c(=O)n2C,99,-7,86,79
Cc1cc(C)c2c(-n3cccc3)c(C(=O)Oc3ccccc3)sc2n1,.,-10,97,88
Cc1ccc(C(C)(C)C)c(OCCOCCN2CCCC2)c1,104,-10,89,88
O=C(NCc1ccco1)c1ccc(-c2ccccc2Cl)o1,.,-7,126,90
NC(=O)C1CCN(C(=O)CN2CCc3ccccc3C2)CC1,110,-2,112,89
CCOC(=O)N1CCN(S(=O)(=O)c2ccc(C(=O)Nc3cc(C)on3)cc2)CC1,108,4,92,98
O=C(c1ccc2c(c1)CCN2S(=O)(=O)c1ccc(Cl)cc1)N1CCN(c2ccccc2)CC1,100,-18,112,98
COc1ccc(-c2nc3nc(CN4CCOCC4)cc(=O)n3[nH]2)cc1,98,7,.,.
CC1CC(NC(=S)NCCO)CC(C)(C)C1 (stereo not given),105,-18,101,86
N#CCOc1ccc(Br)cc1,105,-1,105,94
Oc1ccc(Cl)c2cccnc12,.,-24,78,53
COc1ccc(-c2cc(C)no2)cc1S(=O)(=O)Nc1cccc(C(F)(F)F)c1,101,.,98,85
CNC(=O)c1cc(S(=O)(=O)NC)ccc1C,109,-8,87,107
CCC1Oc2ccc(Cl)cc2N(CC(=O)Nc2ccc3c(c2)C(=O)N(C)C2=NCCN23)C1=O (stereo not given),102,-19,.,.
CC(C)C12CN3CC(C(C)C)(CN(C1)C3c1cccc(Br)c1)C2=O (stereo not given),123&102,-1,.,.
O=C(NCCc1ccccc1)c1c[nH]c2ccc(S(=O)(=O)N3CCOCC3)cc2c1=O,99,1,107,91
CCOc1cc(C2C(C(=O)OC)=C(C)NC3=C2C(=O)CC(c2ccc(OC)cc2)C3)cc(Br)c1O (stereo not given),102,-10,.,.
Cc1ccc(Nc2cc(-c3ccccc3)nc(C)n2)cc1,107,-36,92,79
COCCN1Cc2cccc(C(=O)Nc3ccc(Cl)cc3Cl)c2C1=O,108,1,98,85
O=c1c2c3c(sc2nc2ccc(NCc4ccco4)nn12)CCCC3,.,-54,106,87
Cc1cc2n(n1)CCC(=O)N2CCCC(=O)NC(C)c1ccccc1 (stereo not given),107,-16,.,.
CCOC(=O)N1CCN(C(=O)c2cn(CC(C)C)c(=O)c3c2c2ccccc2n3C)CC1,99,-27,96,79
Cc1cccc2cnn(CC(=O)N3CCc4ccccc4C3)c12,105,-38,90,87
Cc1ccc(-c2nc3ccc(NCc4cccs4)cc3o2)cc1,.,-17,95,91
Cn1c(=O)c2c(ncn2CC(O)COc2ccccc2)n(C)c1=O (stereo not given),102,-32,110,84
O=C(Nc1cccc2ccccc12)OCCn1nnnc1CN1CCOCC1,105,-6,131,97
COc1ccc(CCNC(=O)C2OCCc3ccccc32)cc1OC (stereo not given),102,-20,106,89
